Screening results (PubChem)
ClpP mod: qHTS Assay for Activators of ClpP; purified B. subtilis ClpP, FRET peptide cleavage, 20 min; Potency, µM (titrated, usually from 57.5 µM), inactives show at the top dose activity change, negative = active; AID 651965, 2013; ATP-dependent Clp protease proteolytic subunit (Bacillus subtilis (strain 168)), P80244; 340,000 tested, 1.9% active; active = well fitted falling curve with a large enough effect; inconclusive = small, poorly fitted or top-dose-only effect; inactive = no such curve, though single readings can be large or run the other way; note: potency is the fitted concentration of half-maximal effect; the source files actives as falling curves though it sought activators and does not explain the sign; nearly all actives have a fitted effect of over 65% in size; many hits overshoot -100%
Target sequence (P80244 whole entry, looked up): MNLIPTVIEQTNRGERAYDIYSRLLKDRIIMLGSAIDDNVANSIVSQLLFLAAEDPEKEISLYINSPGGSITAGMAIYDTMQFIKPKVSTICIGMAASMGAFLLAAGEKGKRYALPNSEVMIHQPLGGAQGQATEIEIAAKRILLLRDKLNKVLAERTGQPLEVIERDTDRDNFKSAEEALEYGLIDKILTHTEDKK
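FRET quenching reversal measured ClpP activation: 10 microg/mL B. subtilis ClpP at pH 8 with the FRET-FV decapeptide, read at 430 nm after 320 nm excitation. The 20-min minus 0-min signal was scaled between DMSO/no-enzyme wells and ADEP (5.8 microM final).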
CtBP-E1A blk: blocks the CtBP interaction with E1A; AlphaScreen GST-E1A/His-CtBP binding, 1536-well; hits give low values; control for the full effect not named in the record; activity change, % (concentration not given with the values); 340,000 tested, 0.49% active; AID 651724; in the data active means activity change below about -65%; inconclusive means about -30% to -65%; inactive means above about -30%; note: % is set by controls: 0 for no effect and ±100 for the full control effect
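In 5 uL wells, 23 nL compound meets equimolar GST-E1A and His-CtBP (5X stock 125 nM each) for 2 h, 37 °C. Beads (5X, 50 ug/mL) then 1 h, 37 °C, dark.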
Active calls of the source: *; ? = inconclusive. An excerpt; count on the stated rates, not on these rows.

SMILES	ClpP mod	CtBP-E1A blk
COc1cc(-c2cc(NC=O)c3ncc(-c4ccc(F)cc4)n3c2)cc(OC)c1OC	?	0
Cc1ccc2c(c1)CCCO[C@]21O[C@H](CCO)C[C@H](O)[C@H]1O	0.8%	9
CC(C)CN1C(=O)CSCC1(C)C(=O)NC(C)C (stereo unspecified)	-0.9%	-6
Cc1cccc(C)c1-n1nnnc1C1(C)CCC(=O)N1CCOc1ccccc1 (stereo unspecified)	2.4%	4
CCCS(=O)(=O)NC(=O)C1(C)CCN(C(=O)c2ccccc2C(F)(F)F)C1 (stereo unspecified)	-1.3%	7
CC1(C(=O)NS(=O)(=O)c2cccc(F)c2)CCN1C(=O)c1ccccc1 (stereo unspecified)	-2.3%	-23
CCc1nc2ccc(C(=O)Nc3ccc4c(c3)OCC(=O)N4)cn2c1N(CC)CCOC	-1.7%	0
OC(c1ccc(F)cc1)c1nc(-c2cc3ccccc3o2)cs1 (stereo unspecified)	-9.2%	8
O=C(NC(c1ccc(Cl)cc1)c1ccsc1)C1CCN(Cc2ccc(Oc3ccccc3)cc2)CC1 (stereo unspecified)	-1.2%	-4
CCO/C(C)=N/Oc1cnc2ccccc2c1	-6.6%	24
Cc1nc(NC(=O)C(C)(C)C)sc1C(=O)Cn1cc(CCCC#N)nn1	-3.4%	3
CCCCNC(=O)C(NC(=O)c1ccc(=O)[nH]c1)C(=O)c1ccccc1 (stereo unspecified)	-1.3%	5
CCCCCCCCN1C(=O)[C@H](CC(=O)NCc2cccc3ccccc23)C[C@@]2(C(=O)OCC)CCCC=C12	-9.2%	-13
COC(=O)[C@]12CCCCC=C1N(CCc1ccc(OC)c(OC)c1)C(=O)[C@H](CC(=O)NCc1cccc(C(F)(F)F)c1)C2	0.6%	25
COc1ccc(OC)c(NC(=O)C2(C)CCN2Cc2ccc(SC)cc2)c1 (stereo unspecified)	-1.4%	-12

By substructure, the entries above with a halogen (six)
SMILES	ClpP mod	CtBP-E1A blk
COc1cc(-c2cc(NC=O)c3ncc(-c4ccc(F)cc4)n3c2)cc(OC)c1OC	?	0
CCCS(=O)(=O)NC(=O)C1(C)CCN(C(=O)c2ccccc2C(F)(F)F)C1 (stereo unspecified)	-1.3%	7
CC1(C(=O)NS(=O)(=O)c2cccc(F)c2)CCN1C(=O)c1ccccc1 (stereo unspecified)	-2.3%	-23
OC(c1ccc(F)cc1)c1nc(-c2cc3ccccc3o2)cs1 (stereo unspecified)	-9.2%	8
O=C(NC(c1ccc(Cl)cc1)c1ccsc1)C1CCN(Cc2ccc(Oc3ccccc3)cc2)CC1 (stereo unspecified)	-1.2%	-4
COC(=O)[C@]12CCCCC=C1N(CCc1ccc(OC)c(OC)c1)C(=O)[C@H](CC(=O)NCc1cccc(C(F)(F)F)c1)C2	0.6%	25

Next section.
SMILES	ClpP mod	CtBP-E1A blk
CCNC(=O)C1(C)CCCN(Cc2ccc(-n3ccnc3)cc2)C1 (stereo unspecified)	0.4%	-3
CCOC(=O)N(C)c1c(CC)nc2c(OCc3cc(Cl)cc(Cl)c3)cccn12	-4.0%	-10
CN(C)c1ncnc2c1ncn2[C@H]1CN(Cc2ccc(F)cc2)C[C@@H](CO)O1	0.3%	3
Cc1cccc(CN2CCN(C3CN(Cc4cn(Cc5ccc(F)cc5)nn4)S(=O)(=O)C3)CC2)c1 (stereo unspecified)	-1.1%	-3
CCOC1=C2CN(S(=O)(=O)c3ccc(C)cc3)[C@H](c3cccc(Cl)c3)C[C@@H]2N(S(=O)(=O)c2ccccc2[N+](=O)[O-])[C@H](c2ccccc2)C1	-0.3%	-4
CCC(C(=O)NC(C)(C)C)n1c(-c2ccc(C)cc2)nc2ccccc21 (stereo unspecified)	-28%	-3
CCc1nc2c(OCc3ccc(C(=O)N(C)C)cc3)cccn2c1N(C=O)Cc1ccccc1	-0.8%	1
COc1cccc(-c2cnc(C(O)c3ccc(Cl)cc3C)[nH]2)c1 (stereo unspecified)	2.6%	-9
Cc1noc(C)c1-c1ccc(C(=O)NCC2CC2)c2occc12	-7.9%	-19
CCc1nc2ccc(C(=O)NCCc3ccccn3)cn2c1N(CCC(C)C)CCN(C)C	0.9%	3
Cc1nc2ccc(C(=O)NCCCN3CCCC3=O)cn2c1N(C)C(=O)CCc1ccccc1	-13%	8
Cc1ccc(Cl)cc1-c1cc(C(=O)NCc2cccc(Cl)c2)[nH]n1	0.5%	1
COc1ccc(-c2c(Sc3ccccc3)c3cc(-c4ccc(OC)c(F)c4)ccc3n2C)cc1	7.1%	3
Cc1c(C(=O)NCc2cccc(Cl)c2)sc(=O)n1Cc1cccc(F)c1	-5.2%	0
CC1(c2nnnn2-c2ccc3c(c2)OCCO3)CCC(=O)N1CCCn1ccnc1 (stereo unspecified)	-1.5%	5
COc1ccc(Cl)cc1Cn1c(C)c(C(=O)NCc2ccc(F)cc2)sc1=O	-2.0%	-3
Cc1ccsc1C(=O)N1CCC1(C)C(=O)NCCC#N (stereo unspecified)	-1.2%	5
Cn1c(N)nc(N)c(NC=O)c1=O	-3.5%	4
Cc1nccn1-c1ccc(NC(=O)[C@H]2O[C@@H](n3cnc4c(N)ncnc43)[C@H](O)[C@@H]2O)cc1	1.5%	6
Cc1ccc(Cn2cc(CN3CC(N(C)C)CS3(=O)=O)nn2)cc1 (stereo unspecified)	0.8%	2
COc1cc(CN2C(=O)C(CCc3ccccc3)ON=C2c2cnccn2)cc(OC)c1 (stereo unspecified)	1.9%	10
CC(C)C[C@H]1CN(CCCC[C@H]2CNC(=O)C(=O)N2CCc2ccccc2)C(=O)C(=O)N1CCc1ccc(O)cc1	-0.5%	5
Cc1c(C(=O)N2CCCC2(C)C(=O)NCC(C)C)oc2ccccc12 (stereo unspecified)	0.7%	6
Cc1ccc(S(=O)(=O)N2C[C@H]3[C@H]4C(=O)N(c5ccccc5)C(=O)[C@H]4CC(=O)[C@H]3[C@@H]2c2ccccc2)cc1	0.7%	3
CC(C)N(C(=O)c1ccc(Cc2cn(C)c3ccccc23)nc1)C(C)C	-0.8%	-2
COc1ccc(OC)c(S(=O)(=O)NC(=O)C2(C)CCN2C(=O)C2(c3ccc(Cl)cc3)CC2)c1 (stereo unspecified)	-1.8%	9
CNc1cncc(-c2ccc(OC)cc2)n1	4.5%	2
CCCCNS(=O)(=O)c1cccc(NC(=O)[C@@H]2O[C@H](CO)[C@@H](O)[C@H]2O)c1	0.6%	-1
Cc1nc2c(OCC(=O)C(C)(C)C)cccn2c1N(C)Cc1cccs1	-7.9%	0
COc1ccc(OC)c(S(=O)(=O)NC(=O)C2(C)CCN2C(=O)CC2CCCC2)c1 (stereo unspecified)	-3.3%	0
CC(C)c1cccc(-c2csc(C(C)(O)c3ccccc3)n2)c1 (stereo unspecified)	-3.1%	14
NC(=O)c1cccc(-c2cnc3c(Nc4cccc(OC(F)(F)C(F)F)c4)nccn23)c1	-21%	-18
Cc1cc(C)c2nc(-c3ccccc3)ccc2c1	-20%	32
CC1(C(=O)NS(=O)(=O)c2ccc(Cl)cc2)CCN1C(=O)Cc1ccccc1Cl (stereo unspecified)	0.0%	3
COCCNC(=O)C1(C)CCCN(C(=O)c2ccc3snnc3c2)C1 (stereo unspecified)	-2.1%	-7
CC(C)C[C@H]1COc2cccc(N3CCC[C@@H]3CO)c2S(=O)(=O)N1	-4.2%	0
CCOc1ccc(CCN2C(=O)C(=O)N([C@@H](CC(C)C)CN3CCC[C@H]3CN3C(=O)C(=O)NC[C@@H]3Cc3ccccc3)C[C@@H]2Cc2ccc(O)cc2)cc1	-0.5%	-4
COC(=O)c1ccccc1COc1cccn2c(N(C)C(=O)CCC3CCCC3)c(C)nc12	-1.6%	-4
COc1ccc(CN2C(=O)C(CC(=O)NCCc3ccccn3)CC(C(=O)N3CCOCC3)=C2C)cc1 (stereo unspecified)	-3.0%	5
O=C(C(=O)N1CCCN(Cc2ccc(F)cc2)CC1)c1ccccc1	-0.3%	6
COc1cccc(CNc2nc(NCC3CC3)nc3ccsc23)c1OC	?	1
CCOC(=O)C1=NOC2(C1)C(=O)Nc1ccc(OC(F)(F)F)cc12 (stereo unspecified)	3.5%	5
CCOC(=O)C1=C[C@@H](c2ccccc2)N(S(=O)(=O)c2ccc(C)cc2)[C@H]1c1ccccc1Cl	-4.7%	-9
COC(=O)CCCn1cc(CN2CC(N3CCN(C4CCN(C)CC4)CC3)CS2(=O)=O)nn1 (stereo unspecified)	-2.7%	-4
CCCNC(=O)C1(C)CCN(CCC(=O)c2ccc(Br)cc2)C1 (stereo unspecified)	-3.6%	-1
CCNC(=O)C1(C)CCCN(C(=O)c2cc(OC)ccc2Br)C1 (stereo unspecified)	1.7%	-3
CC(=O)c1ccc(-c2cnc3c(NC=O)cc(-c4ccc(S(C)(=O)=O)cc4)cn23)cc1	-26%	-3
CC(C)Oc1ccc2ccccc2c1CNC[C@H]1O[C@@H](n2ccc(=O)[nH]c2=O)[C@H](O)[C@@H]1O	-5.1%	5
CN1CCN(c2ccc(-c3cc(NC=O)c4ncc(-c5ccc(F)cc5)n4c3)cc2)CC1	-29%	?
O=C(Nc1ccc2c(c1)OCO2)c1ccc2sc([C@@H]3O[C@H](CO)[C@@H](O)[C@H]3O)nc2c1	-7.4%	-27
CC(O)(c1ccc(F)c(F)c1)c1nc(-c2cc3ccccc3o2)cs1 (stereo unspecified)	-3.1%	4
COc1cc(OC)c(C2C=CC(=O)CC2)c(OC)c1 (stereo unspecified)	1.9%	1
COC(=O)[C@]12CCCCC=C1N(Cc1cccc3ccccc13)C(=O)[C@H](CC(=O)NCC13CC4CC(CC(C4)C1)C3)C2	-2.8%	-22
Cc1ncc(CO)c(CO)c1OCC(O)CN1CCN(c2ccc(F)cc2)CC1 (stereo unspecified)	-1.1%	2
Cc1ccc(S(=O)(=O)N2C[C@H]3C(=O)C[C@@H]4C(=O)N(c5ccccc5)C(=O)[C@@H]4[C@@H]3C[C@H]2c2cccc(Cl)c2)cc1	-2.6%	1
Cc1cc2nc(-c3ccc(C#N)cc3)c(Cc3cccc(F)c3)n2c(C)c1Br	-2.5%	-1
C=CCC[C@@H](CCCCC)OC(=O)/C=C/[C@@H](O)[C@H](O)C[C@H](O)CC=C	-1.8%	-10
CCCCNC(=O)C1(C)CCN1C(=O)c1ccc(C(F)(F)F)nc1C (stereo unspecified)	-1.1%	3
Cn1[nH]c2c(c1=O)[C@H](c1ccc(F)cc1)O[C@H](CCc1ccccc1)C2	-3.2%	-24
O=C(Nc1ccc(F)cc1)C(c1ccnc2ccccc12)N1CCN(C(=O)c2ccco2)CC1 (stereo unspecified)	-2.8%	-19

Molecules shown so far that contain an aryl thioether with sulfur outside any ring (2):
SMILES	ClpP mod	CtBP-E1A blk
COc1ccc(OC)c(NC(=O)C2(C)CCN2Cc2ccc(SC)cc2)c1 (stereo unspecified)	-1.4%	-12
COc1ccc(-c2c(Sc3ccccc3)c3cc(-c4ccc(OC)c(F)c4)ccc3n2C)cc1	7.1%	3

More entries.
SMILES	ClpP mod	CtBP-E1A blk
COc1ccccc1CCn1cnc(C)c1CC(C)C	-3.5%	0
c1ccc(CNc2nc(NCCc3ccncc3)c3sccc3n2)cc1	-7.9%	-4
CC1(C(=O)NC2CCCC2)CCC(=O)N1CCc1c[nH]c2ccccc12 (stereo unspecified)	-9.5%	-3
Cc1cc(F)ccc1-c1cc(C(=O)N2CCN(c3ccncc3)CC2)[nH]n1	-4.2%	-9
CN(C)C(=O)C[C@@H]1C=C[C@@H](NC(=O)C2CCC2)[C@@H](CO)O1	-2.4%	0
Fc1ccc(-c2nc3c4ccccc4ccn3c2Cc2ccccc2C(F)(F)F)cc1	-25%	1
CCNC(=O)C1CCCN(Cc2ccc(C(=O)OCC)cc2)CC1 (stereo unspecified)	-0.4%	4
O=C(Nc1ccc2c(c1)OCO2)c1ccc2sc([C@H]3C[C@H](O)[C@@H](CO)O3)nc2c1	0.2%	-4
CC(C)CC(N)c1csc(NC(=O)Nc2ccccc2Cc2ccccc2)n1 (stereo unspecified)	1.7%	-9
CCCNC(=O)C1(C)CCCN(Cc2ccccc2N(C)C)C1 (stereo unspecified)	-3.8%	3
CCCS(=O)(=O)NC(=O)C1(C)CCN(C(=O)c2ccnc(Cl)c2)C1 (stereo unspecified)	1.5%	11
CCNC(=O)C1CCCN(C(=O)c2ccc3c(c2)CCO3)CC1 (stereo unspecified)	0.2%	3
COc1cc2[nH]c(C)c(-c3ccccc3)c(=O)c2cc1Cl	-20%	0
CCOC(=O)C1=CCC(c2cccn2C(=O)OC(C)(C)C)N(S(=O)(=O)c2ccc(C)cc2)C1 (stereo unspecified)	2.8%	-11
N#CC(c1ccccc1)c1ccc([N+](=O)[O-])cc1 (stereo unspecified)	1.8%	-18
CCNC(=O)N(C)c1c(CC)nc2ccc(C(=O)N3CCN(S(=O)(=O)CC)CC3)cn12	-2.4%	-8
COc1ccc(CNC(=O)C2(C)Cc3c(-c4ccccc4)ccnc3O2)cc1OC (stereo unspecified)	-1.8%	-9
COc1cccc(Cn2c3ccc(NC(=O)CC(C)C(F)(F)F)cc3c(=O)n2C)c1 (stereo unspecified)	4.7%	5
CC(=O)Nc1cc(-c2cccc(C(=O)N(C)C)c2)cn2c(-c3ccc(F)cc3)cnc12	-23%	-5
